Bead autofluor: counter-screen for toxin protease inhibitors: compound fluorescence; fluorescence intensity (concentration not given with the values); AID 624483; 3.1% of 360,000 active; compound autofluorescence counterscreen, microsphere flow cytometry; active compounds read high;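 active means at least 3 SD above the mean of all compounds, about 16000 in these data; inconclusive means too few beads counted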;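 further: 100 nL of 1 mM stock went into each well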
Sa ugtP lethal: kills S. aureus RN4220 lacking UgtP | 0.54% of 330,000 active | S. aureus RN4220 ugtP deletion, OD600 growth, 16 h; some inactives read as strong as hits | growth inhibition, % (test concentration not listed) | AID 1259309;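 active means z-score under -3 and OD600 up to 0.15 on both plates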;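 further: plate controls were untreated wells for no effect and antibiotic for full effect; wells of about 80 µL received 100 nL stock; the first replicate is given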
PrP UTR inh: inhibition of PrP 5' UTR reporter expression | cell-based PrP 5' UTR mRNA reporter, plate reader | 0.35% of 340,000 active | AID 488862 | inhibition, % (concentration not given with the values);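 active means every replicate at 50% or more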;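 further: 0 = median of the neutral control wells; tested in H4 reporter cells; numbers are from one replicate; inactives centre near -14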
RN4220 kill: S. aureus RN4220 growth inhibition. AID 1259311. inhibition, % (concentration not given with the values). 0.33% of 330,000 active. OD600, 16 h;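 active means z-score of -3 or lower and OD600 up to 0.18 on both plates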;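 further: plate controls were untreated cells for no effect and reference antibiotic for full effect; stock transfer was 100 nL into about 80 µL; one replicate is shown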
BJeLR viability: kills HRASV12-expressing BJeLR cells. BJeLR (HRASV12) viability, CellTiter-Glo ATP luminescence, 48 h; reference of the scale not given here. inhibition, % (no concentration beside the values). 0.17% of 300,000 active. AID 1554;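 active means replicate mean above 50%; inconclusive means above 50% but judged a plate artefact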;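 further: 50 nL library stock added to about 25 µL; numbers are from one replicate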
Mtb hypoxia rep: inhibitors of hypoxia-regulated fluorescent reporter in Mycobacterium tuberculosis; fluorescence inhibition, % (test concentration not listed); 0.1% of 300,000 active; AID 1159583; M. tuberculosis hypoxia-regulated fluorescent reporter, fluorescence;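 active means 35 to 45% if threefold the growth effect, above 45% if 1.5-fold the growth effect; inactive means the rest, general growth blockers included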;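 further: wells of about 50 µL received 100 nL stock; 0% = vehicle wells and 100% = reference inhibitor wells; whole bacteria with a GFP reporter of the hypoxia response; strong numbers were not always called active; many hits fall short of the cut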
Mtb hypoxia rep growth: recorded beside Mtb hypoxia rep, whose call it bears; growth inhibition, %; measured here: M. tuberculosis growth (absorbance);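 0% = vehicle and 100% = reference antibiotic; read after six days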
* = called active by the depositor; ? = inconclusive; nt = not tested or not shown.

SMILES	Bead autofluor	Sa ugtP lethal	PrP UTR inh	RN4220 kill	BJeLR viability	Mtb hypoxia rep	Mtb hypoxia rep growth
O=C1NCCNC(=O)c2ccccc2OCCOc2ccccc21	2531	8	-4	1.9	-10	8	4
Brc1ccccc1OCCCn1cnc2ccccc21	19986*	-21	-51	1.3	7	1	6
O=C(c1ccccc1)c1coc2ccc(O)c(Cl)c12	8003	2	-30	7.6	-1	8	6
CCOc1cccc(OCCn2cnc3ccccc3c2=O)c1	2029	6	-31	4.5	-3	11	-7
C=CCSC1=N/C(=C/c2ccsc2)C(=O)N1c1ccccc1	2556	3	-12	3.3	-13	4	5
CC12CCC(C(=O)N3CCN(c4ncccn4)CC3)(c3nc4ccccc4nc31)C2(C)C (stereo unspecified)	3542	3	-4	2.3	4	nt	nt
O=C(Cc1ccc(Cl)cc1)NN=Cc1c(Cl)cccc1Cl	nt	-3	nt	-5.1	nt	-10	6
CC(=O)c1ccc(N2Cc3ccccc3C2)cc1	3987	nt	-25	nt	-5	nt	nt
COc1ccc(NC(=O)CO/N=C2\CCCc3nonc32)cc1	2658	nt	-33	nt	4	nt	nt
CSc1ccc(CN2CCN(Cc3ccc([N+](=O)[O-])cc3)CC2)cc1	4574	-1	-11	12	10	10	7
COc1cc2c(cc1OC)CN(Cc1ccc(C)cc1)CC2	4635	7	-10	-0.5	-3	16	8
c1ccc(CNc2ncnc3scc(-c4cccs4)c23)nc1	4738	4	-8	2.0	5	19	1
CC1(C)CC(NC(=O)C23CCC(C)(C(=NO)C2)C3(C)C)CC(C)(C)N1 (stereo unspecified)	nt	-13	nt	2.9	nt	0	6
O=C(COc1ccc(S(=O)(=O)N2CCOCC2)cc1Cl)N1CCOCC1	3794	9	-13	3.1	2	7	1
COc1cc(CCNC(=O)c2cnn3ccccc23)cc(OC)c1OC	5359	10	-12	5.2	3	7	5
O=S1(=O)CCN2C(=N1)SC1=C2CCN(Cc2ccccc2)C1	2435	-14	-14	-6.6	6	nt	nt
Cc1ccc(C(NC(=O)N2CCCCC2)=C(Cl)Cl)cc1F	2590	-3	-8	-0.1	5	-1	12
CCC(=NNC(N)=O)c1ccc(OC)c(OC)c1	nt	3	nt	2.6	nt	12	7
CCCC/C(C)=N/NC(=O)Nc1ccccc1	3273	nt	-23	nt	3	nt	nt
C=CCc1cccc2cc(NC(C)=O)c(=O)oc12	4654	0	-12	3.0	-3	1	8
COc1cc(NC(=O)CCCN2C(=O)NC(C)(C)C2=O)cc(OC)c1	3525	5	-21	5.9	nt	6	8
COc1ccc(NC(=O)CSCC(=O)N(C)Cc2ccc3c(c2)OCCO3)cc1	4054	7	-20	4.3	nt	9	2
Cc1cc(OCC(=O)N(C(C)C)C(C)C)cc(C)c1Br	2011	3	-9	5.5	11	9	7
CCC12C(=O)C(CC)(C(c3ccccc3)=C1c1ccccc1)[C@@H]1C(=O)N(c3ccccc3)C(=O)C12 (stereo partly specified)	2389	-18	0	0.9	1	1	-2
COc1ccccc1/C=C/C=C1\Oc2c(ccc(O)c2CN2CCN(CCO)CC2)C1=O	2160	-2	-12	2.8	-1	12	5
Nc1c(C(=O)Nc2ccc3c(c2)OCCO3)nnn1Cc1ccccc1Cl	4817	8	-50	4.4	13	-1	-5
Cc1cccc(C(=O)OCC(=O)N2CC(=O)Nc3ccccc32)c1C	3097	3	-12	1.6	nt	8	11
O=C(C[n+]1ccccc1)Nc1ccccc1C(=O)O	2171	6	-28	2.0	7	-3	6
C/C(=N\NP(=S)(c1ccccc1)c1ccccc1)c1ccc(O)cc1O	3641	nt	-7	nt	-4	nt	nt
CC1(C)CC(=O)C(C=NCC2CCN(C(=S)Nc3ccccc3)CC2)=C(O)C1	4608	1	nt	1.7	6	1	3
CCC(C)(C)n1nnnc1C(c1cc2cccc(C)c2[nH]c1=O)N1CCN(C(=O)c2ccco2)CC1 (stereo unspecified)	9786	7	-11	2.3	7	-4	4
Cc1cc(Br)ccc1NC(=O)CN(C)C(=O)C1CCN(C(=O)c2ccc(Cl)cc2)CC1	4852	2	-22	2.8	nt	6	2
NNC(=O)c1cc2sccc2s1	3302	2	-7	3.2	-6	1	8
CCOc1ccc(S(=O)(=O)N(C(=O)c2ccco2)c2cc3sc(=O)oc3c3ccccc23)cc1	2429	-2	-26	0.6	-1	-1	4
O=C(O)CNC(=O)CC1S/C(=N/N=C2CSC(=O)N2)NC1=O (stereo unspecified)	nt	14	nt	-0.1	nt	8	10
CCCCCCCn1ccc(=N)cc1	2804	5	1	0.8	13	nt	nt
C=C1[C@@H](C)[C@H]2[C@H](Cc3ccccc3)NC(=O)[C@]23OC(=O)/C=C/[C@H](O)CCC[C@@H](C)C/C=C/[C@H]3[C@@H]1O	5244	nt	26	nt	25	nt	nt
O=C(c1ccc(C(F)(F)F)cc1)C1CCCN(C(=O)c2cnccn2)C1 (stereo unspecified)	3538	16	-9	4.2	4	10	-2
CC(C)NC(=O)NC(=O)CSc1nnc(-c2c[nH]c3ccccc23)o1	4239	-4	2	5.5	5	9	-3
O=C(Cc1ccccc1)NCc1ccc(F)cc1	2528	-3	-44	-6.3	0	-2	7
COC(=O)c1nnn(-c2nc(N(C)C)nc(N(C)C)n2)c1C	4565	2	-16	5.5	1	6	-3
CC(C)N1CCNCC1	4644	6	-40	-0.4	6	16	9
O=C(CCl)N1N=C(c2ccco2)CC1c1ccco1 (stereo unspecified)	4924	6	0	1.7	-4	nt	nt
COc1ccc2c(-c3cc4ccc(OCc5ccc(F)cc5)cc4oc3=O)cc(=O)oc2c1	2343	3	-39	3.0	36	6	6
COCCNc1nc(C)cc(-c2cc(-c3ccc(Cl)cc3)on2)n1	3611	-8	-12	0.1	-1	-8	0
N#Cc1ccc(C(=O)NC23CC4CC(CC(C4)C2)C3)cc1	3508	22	nt	2.0	-9	18	21
COc1ccc(S(=O)(=O)N2CCN(Cc3ccc4c(c3)OCO4)CC2)c2ccccc12	4484	0	-15	-0.6	-11	nt	nt
O=S(=O)(c1c(F)cccc1F)N1CCN(Cc2c(O)ccc3ccccc23)CC1	nt	5	-6	3.4	nt	9	3
CCCCNC(=O)c1cccc(S(=O)(=O)N2CC3(C)CC2CC(C)(C)C3)c1 (stereo unspecified)	?	-1	-7	7.0	nt	1	1
COCCNC(=S)Nc1cc(OC)c(NC(=O)c2ccco2)cc1OC	4673	4	-13	13	1	7	13
COc1ccc(-c2sc3ccc(OC)cc3c2C#Cc2cncn2C)cc1	4094	88	10	75	nt	nt	nt
Cn1c(C(=O)NCc2ccccn2)cc2c(=O)n(C)c3ccccc3c21	6201	7	0	-2.7	-12	nt	nt
Nc1nnnn1/N=C/c1cccc(Br)c1	3443	nt	-22	nt	0	nt	nt
O=S(=O)(Nc1cccc2nsnc12)c1ccccc1	10056	-6	6	0.8	3	-3	-11
Cc1ccc(-n2cc(-c3ccccc3)c3c(=O)[nH]cnc32)cc1	10081	-3	16	11	5	5	14
Oc1c(C=Nc2ccccc2)sc(=S)n1Cc1ccccc1	6403	1	-21	-7.8	2	3	6
CN(Cc1ccccc1)S(=O)(=O)c1ccc(NC(=S)NC(=O)C(C)(C)C)cc1	9468	-3	-19	6.7	4	4	1
C[C@H](CO)N1C[C@H](C)[C@@H](CN(C)Cc2ccc(C(=O)O)cc2)Oc2c(NC(=O)C3CC3)cccc2C1=O	4053	3	-112	3.6	nt	8	9
O=C(COc1ccc2c3c(c(=O)oc2c1)CCCC3)NCCN1CCOCC1	5680	0	-17	3.0	1	-2	2
CN(C(=O)CSc1nc2c(cnn2-c2ccccc2)c(=O)[nH]1)C1CCS(=O)(=O)C1 (stereo unspecified)	nt	11	nt	4.0	-11	-1	-2
Other structures follow.
SMILES	Bead autofluor	Sa ugtP lethal	PrP UTR inh	RN4220 kill	BJeLR viability	Mtb hypoxia rep	Mtb hypoxia rep growth
CCn1c2ccccc2c2cc(NC(=O)CC(C)=NNC(=O)c3ccccc3N)ccc21	nt	-11	nt	3.1	nt	-4	3
CCC(C)N(C(=O)COC(=O)c1cc([N+](=O)[O-])ccc1N1CCOCC1)C1CCS(=O)(=O)C1 (stereo unspecified)	6666	7	-4	3.6	-2	2	-4
Fc1ccccc1C1CC(c2ccco2)=Nc2ccccc2S1 (stereo unspecified)	4979	-2	-57	0.9	-5	19	12
O=S(=O)(NCC(O)c1ccccc1)c1cc(Cl)sc1Cl (stereo unspecified)	5400	2	-19	5.9	3	10	2
CCc1cccc(NC(=O)COC(=O)c2cc([N+](=O)[O-])ccc2N2CCOCC2)c1	5292	1	-4	2.9	3	6	3
COc1ccc(OC)c(C2=NOC(C(=O)Nc3cccnc3)C2)c1 (stereo unspecified)	9577	0	-17	6.4	2	1	5
Nc1nc(Sc2ccc([N+](=O)[O-])cc2[N+](=O)[O-])n[nH]1	4218	6	-10	-0.1	-5	-2	5
CCOC(=O)c1ccccc1NC1c2ccccc2C(=O)N1C1CCN(C(=O)OCC)CC1 (stereo unspecified)	4344	-1	-14	15	-7	-6	11
CCN(CC(=O)Nc1c(F)cccc1F)C(=O)Cc1cccs1	6901	4	-18	3.9	nt	-11	-1
CCOC(=O)C1=C(O)C(=O)N(c2ccc(S(N)(=O)=O)cc2)C1c1ccc(OC)cc1OC (stereo unspecified)	6473	-11	-10	7.6	3	5	25
O=C(N/N=C/c1c[nH]c2ccccc12)c1ccncc1	2535	nt	-13	nt	10	nt	nt
Cc1ccc(S(=O)(=O)N/N=C/c2ccc(OC3CSC3)cc2)cc1	3288	nt	-14	nt	2	nt	nt

A draw from above in order of formula weight, smallest number first.
SMILES	Bead autofluor	Sa ugtP lethal	PrP UTR inh	RN4220 kill	BJeLR viability	Mtb hypoxia rep	Mtb hypoxia rep growth
Fc1ccccc1C1CC(c2ccco2)=Nc2ccccc2S1 (stereo unspecified)	4979	-2	-57	0.9	-5	19	12
CCOC(=O)c1ccccc1NC1c2ccccc2C(=O)N1C1CCN(C(=O)OCC)CC1 (stereo unspecified)	4344	-1	-14	15	-7	-6	11
CCOC(=O)C1=C(O)C(=O)N(c2ccc(S(N)(=O)=O)cc2)C1c1ccc(OC)cc1OC (stereo unspecified)	6473	-11	-10	7.6	3	5	25

Later entries
SMILES	Bead autofluor	Sa ugtP lethal	PrP UTR inh	RN4220 kill	BJeLR viability	Mtb hypoxia rep	Mtb hypoxia rep growth
Cc1cc(C)nc(NN=Cc2ccccc2OCc2ccc([N+](=O)[O-])cc2)n1	nt	14	nt	14	nt	-4	-4
Cc1cccc(OCC(=O)NNc2c3ccccc3nc3ccccc23)c1	21560*	-41	-12	5.5	1	12	12
Cc1nn2c(=O)cc(CSc3ccccc3NC(=O)c3ccccc3F)nc2s1	6177	3	-14	2.7	-7	14	1
CCOC(=O)c1[nH]ncc1CN1CCCC(C(=O)c2cccc(OC(C)C)c2)C1 (stereo unspecified)	2563	-1	-33	1.8	8	4	-5
COc1ccc(NC(=O)CSc2nc3[nH]ncc3c(=O)n2-c2ccccc2C)cc1OC	2073	4	-23	3.5	-15	2	6
COC(=O)c1c(C#N)c(N)nc2c1CCC2	2773	-3	-4	-5.9	1	14	13
COc1cc(OC)cc(C(=O)N[C@@H](CCSC)c2nc3ccccc3[nH]2)c1	4585	-9	-19	-2.4	-6	-3	7
Cc1cccc(C)c1NC(=O)CN(C)C(=O)c1cc(S(=O)(=O)N(C)C)ccc1N1CCCC1	?	13	-9	5.9	-4	-8	-10

Grouped by structure, the entries above containing fluorine
SMILES	Bead autofluor	Sa ugtP lethal	PrP UTR inh	RN4220 kill	BJeLR viability	Mtb hypoxia rep	Mtb hypoxia rep growth
Cc1ccc(C(NC(=O)N2CCCCC2)=C(Cl)Cl)cc1F	2590	-3	-8	-0.1	5	-1	12
O=C(c1ccc(C(F)(F)F)cc1)C1CCCN(C(=O)c2cnccn2)C1 (stereo unspecified)	3538	16	-9	4.2	4	10	-2
O=C(Cc1ccccc1)NCc1ccc(F)cc1	2528	-3	-44	-6.3	0	-2	7
COc1ccc2c(-c3cc4ccc(OCc5ccc(F)cc5)cc4oc3=O)cc(=O)oc2c1	2343	3	-39	3.0	36	6	6
O=S(=O)(c1c(F)cccc1F)N1CCN(Cc2c(O)ccc3ccccc23)CC1	nt	5	-6	3.4	nt	9	3
Fc1ccccc1C1CC(c2ccco2)=Nc2ccccc2S1 (stereo unspecified)	4979	-2	-57	0.9	-5	19	12
CCN(CC(=O)Nc1c(F)cccc1F)C(=O)Cc1cccs1	6901	4	-18	3.9	nt	-11	-1
Cc1nn2c(=O)cc(CSc3ccccc3NC(=O)c3ccccc3F)nc2s1	6177	3	-14	2.7	-7	14	1

Screens as filed in PubChem BioAssay.
